Source: PubChem BioAssay (National Center for Advancing Translational Sciences (NCATS))
hNpr1 antagonist: Natriuretic polypeptide receptor (hNpr1) antagonism - Primary qHTS | Atrial natriuretic peptide receptor 1 (Homo sapiens), P16066 | HEK293 hNpr1 GloSensor cGMP, ANP-stimulated luminescence | Potency, µM (doses to about 46.3 µM), for the others: at the top dose activity change, negative = inhibition, most hits filed as inhibitors | 1.6% of 76,000 active | AID 1347048, 2019; active = well fitted inhibition curve with a large enough effect; inconclusive = small, poorly fitted or top-dose-only effect; inactive = no such curve, though single readings can be large or run the other way;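 further: nearly all actives have a fitted effect of over 60% in size; nearly all hits also lower the signal before the agonist is added; a reference antagonist and vehicle were the controls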
Target sequence (P16066 whole entry, looked up): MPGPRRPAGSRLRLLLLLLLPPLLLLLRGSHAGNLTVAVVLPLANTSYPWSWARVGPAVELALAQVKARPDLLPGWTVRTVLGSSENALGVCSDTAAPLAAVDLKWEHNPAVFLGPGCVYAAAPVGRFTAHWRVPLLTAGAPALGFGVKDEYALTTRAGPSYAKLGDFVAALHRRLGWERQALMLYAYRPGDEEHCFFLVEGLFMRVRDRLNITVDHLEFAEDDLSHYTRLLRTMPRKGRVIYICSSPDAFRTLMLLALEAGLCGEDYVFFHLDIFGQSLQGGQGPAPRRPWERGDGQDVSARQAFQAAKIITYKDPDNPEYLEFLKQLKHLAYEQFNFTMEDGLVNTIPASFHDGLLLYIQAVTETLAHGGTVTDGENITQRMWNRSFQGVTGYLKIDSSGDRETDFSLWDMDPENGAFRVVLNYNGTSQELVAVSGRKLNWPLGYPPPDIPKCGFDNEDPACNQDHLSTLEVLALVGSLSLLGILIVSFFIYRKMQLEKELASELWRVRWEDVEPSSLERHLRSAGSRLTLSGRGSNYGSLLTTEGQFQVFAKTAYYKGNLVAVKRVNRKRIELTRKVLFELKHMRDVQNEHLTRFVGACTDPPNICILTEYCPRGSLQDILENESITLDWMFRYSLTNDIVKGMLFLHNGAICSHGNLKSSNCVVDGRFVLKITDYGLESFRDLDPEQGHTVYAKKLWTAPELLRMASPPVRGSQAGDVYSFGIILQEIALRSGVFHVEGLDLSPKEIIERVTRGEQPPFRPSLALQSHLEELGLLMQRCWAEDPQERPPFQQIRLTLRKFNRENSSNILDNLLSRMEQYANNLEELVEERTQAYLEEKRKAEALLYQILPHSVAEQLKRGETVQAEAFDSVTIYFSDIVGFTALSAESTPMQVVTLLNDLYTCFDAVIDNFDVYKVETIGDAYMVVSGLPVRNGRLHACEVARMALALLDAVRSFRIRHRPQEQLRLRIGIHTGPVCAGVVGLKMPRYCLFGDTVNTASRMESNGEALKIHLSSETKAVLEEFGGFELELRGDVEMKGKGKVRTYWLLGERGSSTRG
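HEK293 cells stably expressing human Npr1 and cGMP GloSensor pGS-40F, loaded 2 h with 2% GloSensor reagent, given compound 30 min at room temperature. Luminescence read before and 20 min after 0.1 nM hNppA.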
Numbers without * were called inactive; ? = inconclusive; [ ] = dose if it differs, or a comment. On the % scale 0 is the no-effect control and ±100 the full control effect; potency means the concentration at half of the fitted maximal effect. Only part of the results is shown. The share of hits here may be higher or lower than overall.

smiles	hNpr1 antagonist
COc1cc(F)ccc1-c1ccc2c(n1)c(=O)ncn2Cc1ccccc1	-3%[70.6 µM]
COCCN1C(=O)c2cccn2CC1CNC(=O)c1ccc(C)nc1 (stereo not drawn)	-1%
N#Cc1ccc(C(=O)Nc2ccc(-c3nnc4n3CCCC4)cc2)cc1	-3%
O=C(CCc1ccsc1)NC1CCCc2nc(-c3ccccc3)ncc21 (stereo not drawn)	2%
COCC(=O)N[C@H]1CCN2C(=O)N(c3ccc(OC(F)(F)F)cc3)C(=O)[C@@H]2C1	0%[70.6 µM]
CCC(=O)N1CC(C(=O)N2CCN(c3ccccn3)CC2)C2(CCOCC2)C1 (stereo not drawn)	5%
CCOCCOC1CCN(C(=O)Cc2c[nH]c3ccccc23)CC1	1%
Cc1ccc(CN2CCc3nc(C(=O)Nc4ccc(Cl)cc4)oc3CC2)cc1	14µM*
CN1CCOc2c(C(=O)NCc3cccnc3)cc(-c3ccc(O)c(F)c3)cc21	0%[70.6 µM]
O=C(Cn1ncc2ccccc2c1=O)NC1CCCc2c1[nH]c1c(Cl)cccc21 (stereo not drawn)	5%
CCC1Oc2ccc(NS(=O)(=O)c3ccc(Cl)cc3)cc2CN(Cc2ccc(F)cc2)C1=O (stereo not drawn)	-24%
COc1ccc(NC(C)=O)cc1NC(=O)C1CC(=O)N(c2n[nH]c3cccc(F)c23)C1 (stereo not drawn)	-1%
CCOc1ccccc1CN1CCCOCCNC(=O)CC1	8%
Cc1nnc(N2CCC(CO)(CN3CCCC3)CC2)c2ccccc12	-1%
Cc1ccc(CNC(=O)c2cc(NC(=O)C(C)C)cc3nc(C)ccc23)cc1	-7%
CCNC(=O)Nc1ccc([C@H]2OCC(=O)N(Cc3ccc(F)cc3)[C@@H]2CO)cc1	2%[70.6 µM]
O=C(NCc1ccccc1F)c1cc2n(n1)CC(c1ccc(Cl)cc1)OC2 (stereo not drawn)	-18%
CCC(=O)N1CCCC1c1nc(CCOCC2CCOCC2)no1 (stereo not drawn)	1%
COc1cccc(CNC(=O)N2CCC(Oc3ncccc3C(=O)N(C)C)C2)c1 (stereo not drawn)	-1%
Cc1ccc(-c2ccc3nnc(CNC(=O)c4ccc5c(c4)OCO5)n3n2)cc1	0%
O=C(Cn1cccc1-c1nc(-c2ccc(F)cc2)no1)N1CCc2ccccc21	8%
Cc1nc2ncnn2c(C)c1CCC(=O)N1C[C@@H](N)C[C@H]1C(=O)NC(C)C	8%
COc1cc(Nc2ccc3nnc(-c4ccccn4)n3n2)cc(OC)c1OC	3%[70.6 µM]
COc1ccc(-c2ccnc3nc(Cc4ccc(F)cc4)nn23)cc1OC	6%
Cc1nccn1CCNC(=O)CCC[C@@H]1[C@H]2CCCN3CCC[C@@H](CN1C(=O)c1cccnc1)[C@@H]23	9%

New compounds follow:
smiles	hNpr1 antagonist
O=C(NC1CC1)C1COC2(CCN(C(=O)c3cccc(Cl)c3)CC2)N1C(=O)c1cccc(F)c1 (stereo not drawn)	-5%
CC(C)CCN1CC[C@H](c2nc3ccccc3[nH]2)C1	-4%[70.6 µM]
CCOC(=O)C1CCN(C(=O)C2CCc3nc(N4CCN(C(C)=O)CC4)sc3C2)CC1 (stereo not drawn)	-3%
COc1ccc(N2CC(c3noc(-c4ccc(N(C)C)cc4)n3)CC2=O)cc1 (stereo not drawn)	?
CCN1C(=O)C2CC3(CCN(C(=O)c4cnccn4)CC3)CN2C1=O (stereo not drawn)	5%
CCOc1cc(=O)n2c(c1C(=O)N1CCN(c3cccc(Cl)c3)CC1)CCCC2	3%
COc1ccccc1CN[C@H]1[C@H](O)[C@@H](N2CCN(c3ccccc3OC)CC2)[C@@H]2OC[C@H]1O2	-4%
CCC(CC)n1c(=O)n(C[C@@H](O)CO)c2cc(C(=O)O)cnc21	1%
O=C(NC1CCCCCC1)c1ccc2c(c1)CC(=O)N2Cc1cccc(F)c1	-2%
Cc1cc(C#N)c(-c2ccccc2C(=O)N(C(C)C)C(C)C)nc1C	2%
COc1cccc(N2C(=O)NC(=NC3CCCCC3)C23CCN([S+](=O)([O-])c2c(C)noc2C)C3)c1 (stereo not drawn)	0%
O=C(NCCc1ccccc1)N1CCc2nn(Cc3ccccc3)c(=O)n2CC1	-7%
CNC(=O)c1onc(-c2ccc(Cl)cc2)c1[C@H](C)O	-9%[70.6 µM]
Cc1ccc(NC(=O)N2CCC(CCNC(=O)c3cccc(F)c3)CC2)cc1F	0%
CC(=O)N1CCC(Cc2ncc(C)n2CC2CC2)C1 (stereo not drawn)	0%
O=C(Nc1cccc2ccccc12)O[C@@H]1CO[C@H]2[C@@H]1OC[C@@H]2Nc1nccc(-c2ccccc2)n1	-10%
Cc1cn2cc(C(=O)NCc3cn4c(n3)SCC4)ccc2n1	2%
Cc1ncc2c(c1CNC(=O)CC(C)c1ccccc1)CCNC2 (stereo not drawn)	0%
Cc1ccc(CN2CCC(N3CCCC(C(=O)NC4CC4)C3)CC2)cc1 (stereo not drawn)	4%
Cc1ncsc1CCC(=O)N1CCC2(CCNCC2)CC1	8%
Cc1cc(S(=O)(=O)N(C)CC2CCOC2)ccc1Cl (stereo not drawn)	-1%
O=C(c1cccnc1)N1CCC(Oc2cccc(F)c2)C1 (stereo not drawn)	2%
COc1cccc(Nc2ncc(-c3ccccc3OC)c3c2OCC3)c1	-15%[70.6 µM]
COCc1nncn1C1CCN(S(=O)(=O)c2cc(Cl)ccc2OC)CC1	4%
CCC(=O)N1CCCCCNC(=O)[C@@H]2CCC[C@@H]21	4%

Other records
smiles	hNpr1 antagonist
NC(=O)[C@@H](Cc1c[nH]c2ccccc12)NC(=O)[C@H]1CN(C(=O)c2cccc(F)c2)CCN1C(=O)c1cccs1	-1%
OCC1CN(C2CCC2)CC12CCN(Cc1ccc(F)cc1)CC2 (stereo not drawn)	-10%
COCCc1noc([C@@H]2CC(F)(F)CN2C(=O)c2ccc(C)cn2)n1	6%
COc1ccc(C(=O)N2CCC3(CC2)OCC(C(=O)NC2CC2)N3C(=O)c2cccc(C)c2)cc1 (stereo not drawn)	-6%
Cc1ccccc1-c1[nH]nc2ncc(-c3ccccc3)nc12	-19%[70.6 µM]
CCCc1nc(C(=O)NCc2nc(C)cc(C(F)(F)F)n2)cs1	6%
CN1Cc2ncnc(N3CCC(c4ccccc4)CC3)c2CN(c2ccccc2)C1=O	-23%
COc1ccc(C(=O)N2CCCN(c3cc(-c4ccccc4)[nH]n3)CC2)c(C)c1	11µM*
COCCn1c(=O)n([C@H]2CCCN(C(=O)c3cc(C)n(C)n3)C2)c2ncccc21	4%
COc1cc(NC(=O)Cn2c(-c3ccc(F)cc3)nc(C)c(CCO)c2=O)cc(OC)c1	5%
Cc1cc(C)cc(NC(=O)Cn2c(N3CCOCC3)nc(C)cc2=O)c1	3%
COc1ccc(CC(=O)N[C@H]2[C@H](O)[C@H](O)C[C@@H]2c2ccc(N3CCOCC3)nc2)cc1	5%[70.6 µM]
COc1ccc(NC(=O)Nc2ccc(C)n(CC(=O)Nc3ccc(C)c(C)c3)c2=O)cc1	-15%
C[C@H]1CCCN1C(=O)c1nnc(COc2ccc3cccnc3c2)n1-c1cccnc1	5%[70.6 µM]
Cn1nccc1C(=O)N1CCC(N2C(=O)C(OCC3CC3)C23CCOCC3)CC1 (stereo not drawn)	4%
CC(=O)Nc1cc(-c2cn(C)c(=O)n3cc(COc4ccc(Cl)cc4)nc23)ccn1	-13%[70.6 µM]
CCc1nc(-c2c3n(c(=O)n(CC(=O)NC4CCCC4)c2=O)CCCCC3)no1	0%
CN(C(=O)[C@@H]1C[C@H](c2ccc(F)cc2)N([S+](=O)([O-])C2CC2)C1)c1ccccc1	-11%[70.6 µM]
O=C1CO[C@H]2CN(Cc3ccc4c(c3)OCO4)C[C@H]2N1c1ccccc1	-29%[70.6 µM]
COc1ccc(Cn2cc(-c3ccc(F)c(C(N)=O)c3)cn2)cc1	-1%
O=C(Cc1ccc(Cl)cc1)N1CCC(N2CCCCCC2=O)CC1	-1%
COc1ccc(-c2ccc(C(=O)N[C@@H]3COCC[C@H]3OC)o2)cc1	-2%
Cc1ccc(CNC(=O)N2C[C@@H](Oc3cccnc3)C[C@H]2C(=O)N2CCCC2)cc1	3%
CCC(=O)N1C[C@@H](Oc2ccccc2)C[C@@H]1C(=O)NCCOC	6%
COc1ccc(CC(=O)Nc2nc3c(s2)C[C@@H]2[C@](C)(CO)[C@H](O)CC[C@@]2(C)[C@@H]3CC(=O)NCCNC(C)=O)cc1	1%

(listing goes on)
smiles	hNpr1 antagonist
COCCNC(=O)C1COC2(CCN(C(=O)c3ccc(OC)cc3)CC2)N1C(=O)c1ccc(C)cc1 (stereo not drawn)	-4%
Cc1ccc(NC(=O)N2CCc3c(C(=O)N(C)C)cccc32)cc1	-1%
O=C(NC1CCCc2c1[nH]c1ccccc21)c1ccccc1 (stereo not drawn)	-10%
O=C1CCCCC(Cc2cccnc2)(C(=O)O)N1 (stereo not drawn)	-1%
O=C(C[C@@H]1O[C@H](CNCc2cccc(Cl)c2)[C@@H](O)[C@H]1O)Nc1ccccc1	-15%[70.6 µM]
COCC(=O)N1CCC(C(NC(=O)c2ccc(F)cc2)C(=O)N2CCCC2)CC1 (stereo not drawn)	1%
CC1(Cc2ccc3c(c2)OCO3)CCCN(C(=O)c2ccc3ncsc3c2)C1 (stereo not drawn)	-23%
Cc1noc(C)c1C(=O)NC1CCCc2c1[nH]c1ccccc21 (stereo not drawn)	-24%
Cc1ccc(C(=O)N(C)C2CCc3ccccc32)cc1 (stereo not drawn)	-4%[70.6 µM]
COC(=O)COc1ccc(C(=O)N[C@@H]2CN(C(=O)NC(C)C)CCC[C@H]2O)cc1	6%[70.6 µM]
CN1Cc2cccn2CC1CNC(=O)NC1CCCCC1 (stereo not drawn)	1%
O=C(NC1CCCN(c2cc(-c3ccccc3)[nH]n2)C1)c1ccc2c(c1)OCO2 (stereo not drawn)	0%
CCNC(=O)N[C@H]1C[C@@H](Cc2cc(CN3CCN(c4ccccc4)CC3)on2)C1(C)C	?
c1ccc(-n2nnnc2N2CCCC(c3nccn3Cc3ccccn3)C2)cc1 (stereo not drawn)	11%
CCOCC(=O)N1CC(c2nc(CCOc3cccc(C)c3)no2)C1	0%
CCOc1ccccc1CN1CCN(c2ccc(C#N)cn2)CC1CCO (stereo not drawn)	-11%
COc1ccc(C(=O)N2CCC[C@H]2c2nc(-c3ccc(OC)c(OC)c3)no2)cc1OC	1%
